# From PubChem BioAssay
# Sa growth 42C = S. aureus growth inhibition at 42 and 30 °C, primary screen, LtaS inhibitor project, RN4220, two temperatures | actives 0.53% (n = 170,000) | AID 720641, 2013 | relative growth, % (test concentration not listed) | OD600, 20 h, 42 °C; stronger effect = lower value;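 active = growth at 42 °C up to 50% and 20 or more points under that at 30 °C, or under 10% at both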;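 note: 300 nL library stock went into each well; scaled to the means of positive and negative controls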
# GIV-Gai inh = inhibitors of GIV peptide binding to Galpha-i3, primary screen, biochemical, fluorescence polarization, FITC-GIV GBA peptide, rat Galphai3; Guanine nucleotide-binding protein G(i) subunit alpha-3 (Rattus norvegicus), P08753; 90 min; stronger effect = lower value; scaled: aluminum fluoride 0%, vehicle 100%; percent of control (FP), % (no concentration beside the values); actives 0.42% (n = 210,000);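 active = replicate mean at 85% of control or lower, very high polarization wells dropped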;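 note: wells of about 15 µL received 100 nL stock; the first replicate is given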
# Target sequence (P08753 whole entry, looked up): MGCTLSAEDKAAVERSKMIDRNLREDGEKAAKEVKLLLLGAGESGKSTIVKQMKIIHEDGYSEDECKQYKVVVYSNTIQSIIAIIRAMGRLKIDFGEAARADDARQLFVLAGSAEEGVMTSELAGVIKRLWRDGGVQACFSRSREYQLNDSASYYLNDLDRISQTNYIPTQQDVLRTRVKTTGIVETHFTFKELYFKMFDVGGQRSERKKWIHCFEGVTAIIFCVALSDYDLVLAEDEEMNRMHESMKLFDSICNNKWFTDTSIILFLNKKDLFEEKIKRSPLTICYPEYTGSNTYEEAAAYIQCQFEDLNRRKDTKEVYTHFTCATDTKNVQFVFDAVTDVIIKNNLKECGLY
# HCMV NEC inh = inhibitors of HCMV UL50-UL53 interaction, biochemical, HTRF; HCMV UL50-UL53 nuclear egress complex (human cytomegalovirus); actives 0.15% (n = 190,000); inhibition, % (test concentration not listed); normalized percent inhibition;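 active = both replicates at 50% or more, plus weaker picks with an unusually low signal ratio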;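 note: stock transfer was 100 nL into about 20 µL; 0% = negative control wells and 100% = wells with untagged competitor protein; inactives centre near -12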
# Sa growth 42C second temp = second read-out of Sa growth 42C, no call of its own (marks repeat the call); relative growth, %; measured here: growth at 30 °C;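 optical density after 20 h as mean of two plates; 100% = untreated growth and lower means inhibition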
# * hit, by the source's call; · = no result given. Compounds as they come, and some 0.8% of all compounds hit somewhere here.
cpd	SMILES	Sa growth 42C	Sa growth 42C second temp	GIV-Gai inh	HCMV NEC inh
1	C=CCN(CC=C)C(=O)c1ccc2c(c1)OCO2	112	84	106	-2
2	OCCNCCOc1ccc(I)cc1	105	92	·	-20
3	CCCCN1C(=O)S/C(=C\c2cc(C)n(C)c2C)C1=O	96	86	105	·
4	CC(C)c1ccc(S(=O)(=O)c2nnn3c2nc(NCCc2ccccc2)c2sccc23)cc1	87	79	106	·
5	COc1ccc(-c2cc(C(=O)NCCCn3ccnc3)no2)cc1	106	79	98	-4
6	Cc1nn(S(=O)(=O)c2ccc(C(C)C)cc2)c(C)c1S(=O)(=O)N1CCCCCC1	84	91	102	·
7	O=C(CCn1c(=O)sc2ccccc21)NCc1cccs1	91	85	100	·
8	COC(=O)c1sc(-c2ccc(C(C)(C)C)cc2)cc1NC(=O)COCC(=O)O	56	36	102	-107
9	CCOC(=O)N1CCN(C(=O)c2cnn(-c3cccc(C)c3)c2-n2cccc2)CC1	103	78	104	·
10	N#CCCN(Cc1ccccc1)S(=O)(=O)c1ccc2c(c1)CCO2	108	78	104	-15
11	CCOc1cc(C2C3=C(CC(C)(C)CC3=O)OC3=C2C(=O)CC(C)(C)C3)ccc1OCc1ccc(F)cc1	·	·	94	-16
12	COCCNC(=O)c1sc2nc3n(c(=O)c2c1C)CCC3	115	85	98	-9
13	COC(=O)C1=C(Nc2ccccc2NC(=O)CCCC(=O)O)CSC1	88	82	107	-23
14	Cc1noc(C)c1CCNC(=O)CCSCc1cnn(-c2ccccc2)c1-n1cccc1	·	·	98	-22
15	C=C1OC(C)(C)c2ccccc21	76	100	96	79
16	O=C(C1CCN(S(=O)(=O)c2ccccc2)CC1)N1CCCCC1	109	94	103	3
17	COC(=O)c1ccc(/C=C2/NC(=O)NC2=O)cc1	96	92	102	-75
18	COc1ccc(NC(=O)Cn2c(=O)n(CCc3ccccc3)c(=O)c3ccccc32)cc1	103	90	103	-13
19	Cc1cnc(C(=O)Nc2ccc(S(=O)(=O)NC3=NCCCCC3)cc2)cn1	78	90	·	-22
20	CC(C)c1ccc(NC(=O)c2cc3sc(Cl)cc3n2C)cc1	86	100	107	22
21	Cc1cc(C)cc(NC(=O)C2CCN(S(=O)(=O)c3cccc4nsnc34)CC2)c1	·	·	109	-34
22	CNS(=O)(=O)c1cccc(S(=O)(=O)c2cccc(S(=O)(=O)NC)c2)c1	80	90	·	-7
23	Cc1ccc(S(=O)(=O)c2nnn3c2nc(NC2CCCCC2)c2sccc23)cc1C	92	99	111	·
24	CCCN1CC23C=CC(O2)C(C(=O)O)C3C1=O (stereo not drawn)	103	89	·	-4
25	Cc1ccc(N(C(=O)C2CCCO2)C2C=CS(=O)(=O)C2)cc1Cl (stereo not drawn)	92	92	98	·
26	O=C(c1cc(=O)[nH]c2ccccc12)N1CCCc2ccccc21	120	93	·	-40
27	Cc1ccn2cc(CSC(=S)N3CCOCC3)nc2c1	86	80	98	-14
28	O=C(O)c1cc2c3c(c1)C1C=CCC1C(c1cccc([N+](=O)[O-])c1)N3CC1CC=CC21 (stereo not drawn)	·	·	101	-7
29	C/C(=N\N1C(=O)c2ccccc2C1=O)c1ccccc1O	95	97	98	-4
30	C(=N\c1nncs1)/Nc1nncs1	94	87	104	-9
31	COC(=O)c1cc(NC(=O)Cn2nc(-c3ccccc3)c3c(c2=O)CCCC3)cc(C(=O)OC)c1	97	80	99	-6
32	CCOC(=O)c1cc(-c2ccc(OC)cc2)n(CCC(=O)NC2CCC(C)CC2)c1C (stereo not drawn)	105	87	100	·
33	CCOC(=O)Cc1csc(NC(=O)/C=C/c2cccs2)n1	98	87	·	-82
34	O=C(c1ccc(N2CCCC2=O)cc1)N1CCN(c2ccccn2)CC1	·	·	98	-14
35	CC1CC1C(=O)OCC(=O)Nc1ccccc1C(F)(F)F (stereo not drawn)	100	87	·	-5
36	COc1ccc(C2c3c(n(C)c4ccccc34)C(=O)N2CC(=O)Nc2ccccc2F)cc1 (stereo not drawn)	125	94	103	·
37	COc1ccc2c(CC(=O)O)coc2c1	100	90	90	-13
38	CCC(C)NC(=O)CSc1ccc(Cl)cc1 (stereo not drawn)	91	107	·	-3
39	CC12CN(C(=O)c3cccs3)CC(C)(CN(C(=O)c3cccs3)C1)C2=O	114	85	106	-18
40	Cc1ccc(CS(=O)(=O)c2nnc(N)s2)cc1	·	·	104	-27
41	c1ccc(SCc2nnc3sc(-c4cnccn4)nn23)cc1	·	·	106	-24
42	Cc1cc(C)n2ncc(C(=O)N3CCCCC3)c2n1	·	·	99	-12
43	CCc1cccc(CC)c1NC(=O)CCS(=O)(=O)c1ccc(Br)s1	103	96	107	4
44	O=C(Nc1cccc(Cl)c1)c1ccc(F)c(S(=O)(=O)N2CCC3(CC2)OCCO3)c1	106	91	101	·
45	Cc1sc(-n2cccc2)c(C#N)c1C	94	71	105	·
46	Clc1ccc(C2=CC(c3cccs3)n3c(nc4ccccc43)N2)cc1 (stereo not drawn)	109	58	104	-30
47	CCOC(=O)C1CCN(C(=O)c2ccc3c(c2)sc2nc(-c4ccc(OCC)cc4)cn23)CC1	102	67	106	·
48	O=C(NC1CCc2ccccc21)c1cn(-c2ccc(F)cc2)nn1 (stereo not drawn)	95	85	105	-15
49	CCN(CC(=O)Nc1ccccc1OC)C(=O)c1ccc(-n2cccn2)cc1	108	91	·	19
50	COc1ccc2c(c1)NC(c1cc(Cl)cc(Cl)c1O)c1cccn1-2 (stereo not drawn)	111	104	107	6

# Full records from above. Order of screens: Sa growth 42C	Sa growth 42C second temp	GIV-Gai inh	HCMV NEC inh
# `O=C(c1cc(=O)[nH]c2ccccc12)N1CCCc2ccccc21` is entered as 120	93	·	-40
# `Cc1cc(C)n2ncc(C(=O)N3CCCCC3)c2n1` is entered as ·	·	99	-12
# `CCOC(=O)C1CCN(C(=O)c2ccc3c(c2)sc2nc(-c4ccc(OCC)cc4)cn23)CC1` is entered as 102	67	106	·
# `CC12CN(C(=O)c3cccs3)CC(C)(CN(C(=O)c3cccs3)C1)C2=O` is entered as 114	85	106	-18

# An excerpt of these results, field by field.
9: CCOC(=O)N1CCN(C(=O)c2cnn(-c3cccc(C)c3)c2-n2cccc2)CC1
  Sa growth 42C: 103
  Sa growth 42C second temp: 78
  GIV-Gai inh: 104
  HCMV NEC inh: ·

10: N#CCCN(Cc1ccccc1)S(=O)(=O)c1ccc2c(c1)CCO2
  Sa growth 42C: 108
  Sa growth 42C second temp: 78
  GIV-Gai inh: 104
  HCMV NEC inh: -15

# Further results follow.
cpd	SMILES	Sa growth 42C	Sa growth 42C second temp	GIV-Gai inh	HCMV NEC inh
51	CSc1ccc(CN(C)CC(=O)NC2(C#N)CCCC2)cc1	82	93	·	4
52	O=C(CNc1cccc(C(F)(F)F)c1)NN1C(=O)NC2(CCCCC2)C1=O	112	89	·	3
53	CCc1c(C#N)c(N)nc(SCC(=O)c2ccc(Cl)c(Cl)c2)c1C#N	·	·	100	-9
54	CCNc1nc(NCC)n2c(=S)n(CN3CCOCC3)nc2n1	97	78	99	-27
55	CCOc1ccc(OCC)c(NC(=O)C2CCN(c3nnc(-n4cccc4)s3)CC2)c1	83	87	99	·
56	COc1ccc2c(c1)c1c(c(=O)n(-c3ccc(OC)c(OC)c3)c(=O)n1Cc1ccccc1F)n2C	119	96	110	·
57	CCOc1ccc(NC(=O)c2c(C)nn(-c3ccc(F)cc3)c2-n2cccc2)cc1	97	90	103	·
58	COc1cc(/C=C/C(=O)N2CCc3ccccc3C2)cc(OC)c1OC	106	80	105	-32
59	CCC(=O)N1c2ccccc2NC2=C(C(=O)CC(C)(C)C2)C1c1ccccn1 (stereo not drawn)	109	68	100	1
60	CCc1nc2nc3c(c(N4CCN(c5cccc(Cl)c5)CC4)n2n1)CCC3	·	·	105	-5
61	CN(C)c1ccc(Nc2nc(-c3cccnc3)nc3ccccc23)cc1	0.2*	0.0*	104	-42
62	O=C(O)COc1ccc2oc(=O)c3c(c2c1)CCC3	104	91	·	-32
63	COc1ccc(N2CC(NC(=O)/C=C\c3ccccc3)CC2=O)cc1OC (stereo not drawn)	119	86	98	·
64	CC(=O)N1c2ccc(S(=O)(=O)N3CCN(c4cc(Cl)ccc4C)CC3)cc2CC1C (stereo not drawn)	91	104	105	·
65	Cc1c(C)n(-c2ccccc2)c2ncn(CCC(=O)N3CCc4ccccc43)c(=O)c12	·	·	101	-18
66	CCc1ccc(C(=O)COC(=O)c2nc(-c3ccccc3)oc2C)cc1	90	76	·	-29
67	COc1ccc(-c2cc(C(F)(F)F)nc(SCCC(=O)Nc3ccc(OC)c(OC)c3)n2)cc1	82	89	99	-26
68	CCn1c(-c2ccccc2)c[nH]c1=S	91	89	·	-22
69	CCc1cc2c3c([nH]c2cc1S(=O)(=O)N1CCCCC1)CCCC3=O	118	73	100	-34
70	CC1(C)CC(=O)C=C(NCC2CCCO2)C1 (stereo not drawn)	114	82	·	-23
71	CCn1c2ccccc2c2cc(NC(=O)CCC3CCCCC3)ccc21	107	86	98	·
72	Cc1cc(Nc2ccc(F)cc2)nc(-n2nc(C)cc2C)n1	2.5*	0.0*	101	·
73	CCOc1c(CC2C(=O)Nc3ccc(Br)cc32)cccc1OC (stereo not drawn)	110	96	100	14
74	O=C(O)CCn1c(C(=O)O)cc2sccc21	91	89	99	-9
75	COc1ccc(C(=O)NCC(c2ccc(Br)cc2)c2c[nH]c3ccccc23)cc1 (stereo not drawn)	·	·	103	-24
76	CCc1ccc(/C=C(/C#N)c2nc(-c3ccc(C)cc3)cs2)cc1	97	83	103	-11
77	COc1ccc(C(=O)N2CCC(c3c[nH]c4ccccc34)(c3c[nH]c4ccccc34)CC2)cc1	82	52	106	-17
78	CN(Cc1c(O)ccc2c(=O)c(-c3ccccc3)coc12)C1CCCCC1	88	89	98	-10
79	CCN1CCc2c(sc(-n3cccc3)c2CNC(=O)Nc2ccsc2C(=O)OC)C1	·	·	127	-28
80	C(=N\c1cc(-c2ccccc2)nn1-c1ccccc1)/c1ccccc1	89	17	·	28
81	O=C(OCC(=O)c1c[nH]c2ccccc12)c1ccc(-n2cnnn2)cc1	75	75	·	-29
82	O=C1CSc2ccc(S(=O)(=O)CCC(=O)NC3CCCC3)cc2N1	·	·	118	-10
83	O=C(Nc1cccc(-c2nc3ccccc3[nH]2)c1)C1CC(=O)N(Cc2ccco2)C1 (stereo not drawn)	32	30	·	-10
84	COc1cc(OC)c(NC(=O)Cn2c(=O)cc(C)c3c(C)nn(-c4ccc(C)cc4)c32)cc1Cl	102	104	107	·
85	CC(C)C(C(=O)NN1C(=O)/C(=C/c2ccccn2)N=C1c1ccccc1)c1ccc(Cl)cc1 (stereo not drawn)	79	88	·	-20
86	O=C(O)CC12CSc3[nH]c(=O)sc3C1c1ccccc1OC2=O (stereo not drawn)	91	90	91	·
87	CN1CCC(NC(=O)c2ccncc2)CC1	101	87	102	-2
88	COc1ccc(-n2nc(C(=O)Nc3ccc(C(C)=O)cc3)nc2-c2ccccc2)cc1	96	67	100	-10
89	Cc1cc2c(c(C)c1Cl)CN(Cc1ccc3c(c1)OCO3)CO2	108	98	105	13

# Reformatted screen by screen: part of the list above.
85: CC(C)C(C(=O)NN1C(=O)/C(=C/c2ccccn2)N=C1c1ccccc1)c1ccc(Cl)cc1 (stereo not drawn)
86: O=C(O)CC12CSc3[nH]c(=O)sc3C1c1ccccc1OC2=O (stereo not drawn)

entry no.	85	86
Sa growth 42C	79	91
Sa growth 42C second temp	88	90
GIV-Gai inh	·	91
HCMV NEC inh	-20	·

# As entered above:
# compound 88 | GIV-Gai inh = 100
# compound 85 | Sa growth 42C second temp = 88
# compound 78 | GIV-Gai inh = 98
# compound 84 | Sa growth 42C = 102
# compound 83 | Sa growth 42C = 32
